P. yoelii liver: Plasmodium liver-stage growth inhibition, dose response, imaging, Malaria Box, P. yoelii, HepG2-A16-CD81EGFP (AID 602156); 5,700 compounds, 4.8% hits; P. yoelii liver stage in HepG2-A16-CD81EGFP, imaging; first-round cut-off not given here; calls after a first round at 10 µM; hits with a dose series show IC50 in µM; in the data active = a potency from the dose series;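 also: infected cells exposed to compound for 48 hours before fixation; stained parasite area by imaging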
Active calls of the source: *. Not all compounds are listed. The share of hits here may be higher or lower than overall.

Results for CCc1c(C(C)S(=O)(=O)c2ccc(C)cc2)[nH]c(=O)n1-c1ccc(OC(F)(F)F)cc1 (stereo not given) ?
P. yoelii liver: inactive

How did COc1c([N+](=O)[O-])cc2c(c1Br)OC1(C=C2)N(C)c2ccccc2C1(C)C (stereo not given) do in these assays?
P. yoelii liver: inactive

Results for CCN1CCC(NC2CCCc3c2[nH]c2ccc([N+](=O)[O-])cc32)CC1 (stereo not given) ?
P. yoelii liver: inactive

Results for CCOC(=O)N1CCC(NC(=O)c2c(C)nn(-c3cccc(C)c3)c2-n2cccc2)CC1 ?
P. yoelii liver: inactive

What do the screens show for `COc1cccc(N2C(N)=NC(N)=NC2(C)C)c1`?
P. yoelii liver: 0.029µM*

What do the screens show for `N#CCSc1nc2ccccc2c2nc(CCc3c[nH]c4ccccc34)nn12`?
P. yoelii liver: inactive

How did COc1ccc(C2=C(Nc3ccc(Br)c(C)c3)c3ccccc3C2=O)cc1 do in these assays?
P. yoelii liver: inactive

How did Nc1nonc1-n1nnc(C(=O)NN=Cc2cccc(Cl)c2)c1-c1ccccc1 do in these assays?
P. yoelii liver: inactive

What do the screens show for `CC(C)CNc1nc(NCCN2CCCCC2)ncc1C(=O)NCc1ccccc1`?
P. yoelii liver: inactive

How did Cc1ccc(C2Sc3ccccc3NC3=C2C(=O)c2ccccc23)cc1 (stereo not given) do in these assays?
P. yoelii liver: 0.28µM*

Results for Clc1ccc(-c2cn(-c3ccccc3)c3[n+]2CCS3)cc1 ?
P. yoelii liver: inactive

What do the screens show for `CCN1CCN(Cc2c(O)ccc3c(=O)c(Oc4cc(C)cc(C)c4)c(C(F)(F)F)oc23)CC1`?
P. yoelii liver: inactive

What do the screens show for `Nc1c(Cl)c(Cl)nc(C(Cl)(Cl)Cl)c1Cl`?
P. yoelii liver: inactive

How did COc1cc(NCCCC(C)Nc2ccnc3cc4ccccc4cc23)c2ncccc2c1 (stereo not given) do in these assays?
P. yoelii liver: inactive

What do the screens show for `CCOc1ccc(NC(=O)CSc2nncc(=O)[nH]2)cc1`?
P. yoelii liver: inactive

Results for O=C(CN1CCN(C(=O)c2ccccc2)CC1)Nc1ccc(-c2nc3cc(NC(=O)CN4CCN(C(=O)c5ccccc5)CC4)ccc3o2)cc1 ?
P. yoelii liver: inactive

Results for CO[C@H]1O[C@@H]2COC(c3ccccc3)O[C@H]2[C@@H](O)[C@@H]1OCc1ccccc1 (stereo not given in full) ?
P. yoelii liver: inactive

Results for O=C1CN(C(=O)COC(=O)c2ccccc2NCCc2ccc(F)cc2)c2ccccc2N1 ?
P. yoelii liver: inactive

What do the screens show for `CN(CCCNc1ccnc2cc(Cl)ccc12)S(=O)(=O)c1ccc([N+](=O)[O-])cc1`?
P. yoelii liver: inactive

What do the screens show for `COc1ccc2[nH]c(-c3ccccc3)cc(=O)c2c1`?
P. yoelii liver: inactive

What do the screens show for `O=C1C(=O)N(CCCn2ccnc2)C(c2ccccc2[N+](=O)[O-])C1=C(O)c1ccccc1` (stereo not given)?
P. yoelii liver: inactive

What do the screens show for `COc1ccc(Cl)cc1NC(=S)NNC(=O)c1cccnc1`?
P. yoelii liver: inactive

Results for O=C1NC(=O)C(Cc2ccc(S(=O)(=O)N3CCN(c4ccccc4)CC3)cc2)S1 (stereo not given) ?
P. yoelii liver: inactive

How did CCOc1ccc2[nH]c3c(NCCN(C)C)ncnc3c2c1 do in these assays?
P. yoelii liver: inactive

What do the screens show for `O=C(NCc1ccccc1)c1cccc2c(Br)cccc12`?
P. yoelii liver: inactive

What do the screens show for `CC[n+]1c(/C=C/c2ccc(SC)cc2)ccc2ccccc21`?
P. yoelii liver: inactive

What do the screens show for `COc1ccc(CCNC(=S)Nc2ccccc2C)cc1OC`?
P. yoelii liver: inactive

Results for CCOC(=O)C1=C(C)N(CCNc2ncc(C(F)(F)F)cc2Cl)C(=O)CC1 ?
P. yoelii liver: inactive

What do the screens show for `CC(C)CC(=O)OC1C(N2CCCCC2)c2c(ccc(/C=C/C(=O)N3CCCCC3)c2O)OC1(C)C` (stereo not given)?
P. yoelii liver: inactive

Results for COc1ccccc1NC(=O)CCN1CCCC(C)C1 (stereo not given) ?
P. yoelii liver: inactive

What do the screens show for `Cc1ccc(N2C(=O)C3C(C2=O)C2(c4ccccc4)C(=O)C3(c3ccccc3)C(c3ccccc3)=C2c2ccccc2)cc1[N+](=O)[O-]` (stereo not given)?
P. yoelii liver: inactive

How did CCN(CC)CCCC(C)Nc1cc(C=Cc2ccc([N+](=O)[O-])cc2)nc2cc(OC)ccc12 (stereo not given) do in these assays?
P. yoelii liver: inactive

How did Oc1ccc(C=NNC(=Nc2ccccn2)c2ccccn2)c(O)c1 do in these assays?
P. yoelii liver: inactive

How did CCOC(=O)C1=C(CC)NC2=C(C(=O)CC(C)(C)C2)C1c1ccc(Cl)cc1Cl (stereo not given) do in these assays?
P. yoelii liver: inactive

How did CCCCN(CCCC)CCCNc1ncnc2c1[nH]c1ccc(C)cc12 do in these assays?
P. yoelii liver: inactive

How did Cc1nn(-c2cc(N3CCOCC3)ccc2[N+](=O)[O-])c(=O)c2ccccc12 do in these assays?
P. yoelii liver: inactive

How did CCOC(=O)Cn1cnc2c(nnn2Cc2ccc(F)cc2)c1=O do in these assays?
P. yoelii liver: inactive

Results for COc1ccc(/C=C2\N=C(c3ccc(Cl)cc3)N(c3ccccc3)C2=O)cc1OC ?
P. yoelii liver: inactive

Results for O=c1c([N+](=O)[O-])cccn1Cc1ccc(F)cc1Cl ?
P. yoelii liver: inactive

Results for Nc1cc(OC(=O)c2ccccc2)nn1S(=O)(=O)c1ccc(Cl)cc1 ?
P. yoelii liver: inactive

What do the screens show for `NCC(c1ccc(F)cc1)c1ccc(F)cc1`?
P. yoelii liver: inactive

Results for c1ccc(Oc2cccc(CN3CCc4nc(N5CCCCC5)sc4C3)c2)cc1 ?
P. yoelii liver: inactive

How did COc1ccccc1NC(=O)c1cnn(-c2ccccc2)c1-n1cccc1 do in these assays?
P. yoelii liver: inactive

How did O=C(NCc1c(Cl)cccc1Sc1ccc(Cl)cc1)c1ccc2c(c1)CCO2 do in these assays?
P. yoelii liver: inactive

Results for COc1ccc(C=C2SC(=N)N(c3ccccc3OC)C2=O)cc1 ?
P. yoelii liver: inactive

What do the screens show for `COC(=O)C1=CNC=C(C(=O)OC)C1c1ccc(Cl)c(Cl)c1`?
P. yoelii liver: inactive

What do the screens show for `CN(C)CCNc1ncc(C(=O)NCc2ccccc2)c(NCCc2ccccc2)n1`?
P. yoelii liver: inactive

How did CCOc1ccc(S(=O)(=O)c2cn(Cc3ccccc3C)c3ccc(OC)cc3c2=O)cc1 do in these assays?
P. yoelii liver: inactive

What do the screens show for `CCOC(=O)c1cnc2ccc(OCC)cc2c1NCCCN(CC)CC`?
P. yoelii liver: inactive

What do the screens show for `Cc1cc(C)c2cc(CN(CCN(C)C)C(=S)NCCCN(C)C)c(=O)[nH]c2c1`?
P. yoelii liver: inactive

Results for Cc1ccc2nc3c(c(NCCCN(C)C)c2c1)CCC3 ?
P. yoelii liver: inactive

What do the screens show for `O=C(NCCN(CCNc1ccnc2cc(Cl)ccc12)CCNc1ccnc2cc(Cl)ccc12)C1CCC1`?
P. yoelii liver: inactive

What do the screens show for `OC(CNCC1CCCO1)Cn1c2ccc(Br)cc2c2cc(Br)ccc21` (stereo not given)?
P. yoelii liver: inactive

What do the screens show for `CCc1cccc(NS(=O)(=O)c2ccc3[nH]c(=O)c(=O)[nH]c3c2)c1`?
P. yoelii liver: inactive

How did CCCCN(CCCC)CCCNc1ncnc2c1[nH]c1ccc(Cl)cc12 do in these assays?
P. yoelii liver: inactive

What do the screens show for `O=C(NC(=CC=Cc1ccccc1)C(=O)N1CCOCC1)c1ccc(Br)cc1`?
P. yoelii liver: inactive

What do the screens show for `CCCCc1ncc(CN2CCC3(CC2)C(=O)N(CCc2ccccc2)C(=O)N3C)[nH]1`?
P. yoelii liver: inactive

How did CC(=O)c1cccc(NC(=O)NC2CC3CCCC(C2)N3CCc2ccccc2)c1 (stereo not given) do in these assays?
P. yoelii liver: inactive

How did CCCS(=O)(=O)c1c(S(=O)(=O)CCC)c2ccc(C(C)=O)cn2c1C(=O)c1ccc(C)cc1 do in these assays?
P. yoelii liver: inactive

What do the screens show for `COc1cccc(N2CCN(CCNCCc3ccccc3)[C@@H](Cc3ccc(O)cc3)C2)c1`?
P. yoelii liver: inactive

Results for O=C1CN(C(=O)CCC2CCCCC2)C(c2ccccc2)c2cc(F)ccc2N1 (stereo not given) ?
P. yoelii liver: inactive

What do the screens show for `CCN(CC)C(=O)c1cn(C2CCN(Cc3ccco3)CC2)nn1`?
P. yoelii liver: inactive

How did CCCCN(CC)S(=O)(=O)c1cc(Br)cc2c1N(C(C)=O)CC2 do in these assays?
P. yoelii liver: inactive

How did Cc1ccn2c(NC(C)(C)CC(C)(C)C)c(-c3ccccc3OC(=O)c3cccs3)nc2c1 do in these assays?
P. yoelii liver: inactive

What do the screens show for `O=C1N(c2ccccc2)C[C@@H]2C[C@@H](c3ccc4nonc4c3)N3CCC[C@@]123`?
P. yoelii liver: inactive

What do the screens show for `CCN(CC)CCCN(Cc1cc2ccc(C)cc2[nH]c1=O)C(=S)Nc1cccc(Cl)c1`?
P. yoelii liver: 0.45µM*

What do the screens show for `O=C1CCC(=O)N1c1ccc(CSc2nc3ccccc3[nH]2)cc1`?
P. yoelii liver: inactive

How did CCCCCCN(C(=O)c1ccc2ccccc2c1)C(CC)c1nc2ccccc2c(=O)n1-c1cccc(Cl)c1 (stereo not given) do in these assays?
P. yoelii liver: inactive

What do the screens show for `CC1=C(C(=O)Nc2ccc(C)cc2C)C(c2cc(Br)ccc2F)n2ncc(C(=O)Nc3ccc(C)cc3)c2N1` (stereo not given)?
P. yoelii liver: inactive

How did OC(CN1CCN(Cc2ccccc2)CC1)Cn1c2ccc(I)cc2c2cc(I)ccc21 (stereo not given) do in these assays?
P. yoelii liver: inactive

What do the screens show for `Cn1nc(C(=O)N2CCCCCC2)c2c1CCC(NCC(C)(C)N1CCOCC1)C2` (stereo not given)?
P. yoelii liver: inactive

Results for O=c1c2c(nc3cc(-c4ccc(-c5ccccc5)cc4)[nH]n13)CCCC2 ?
P. yoelii liver: inactive

Results for O=C(Nc1ccc(-n2cccn2)cc1)C1CCN(Cc2nc3c(s2)CCCC3)CC1 ?
P. yoelii liver: inactive

Results for COCCCNC(=O)C=Cc1ccc(C(C)C)cc1 ?
P. yoelii liver: inactive

What do the screens show for `O=C1C2C(C(=O)N1c1ccc(F)cc1)C1(c3ccccc3)C(=O)C2(c2ccccc2)C(c2ccccc2)=C1c1ccccc1` (stereo not given)?
P. yoelii liver: inactive

How did CCCCCCCN(CCCCCCC)CC(O)c1cc2ccccc2c2cc(Br)ccc12 (stereo not given) do in these assays?
P. yoelii liver: inactive

Results for Cc1ccc(Cl)cc1-n1c(SCc2ccccc2)nnc1C(Cc1ccccc1)NC(=O)C12CC3CC(CC(C3)C1)C2 (stereo not given) ?
P. yoelii liver: inactive

What do the screens show for `CCCCCCCCC(=O)NCCCCNc1ccnc2cc(Cl)ccc12`?
P. yoelii liver: inactive

What do the screens show for `CSc1ccc(NC(=O)N2CCCn3cccc3C2c2ccc(C(F)(F)F)cc2)cc1` (stereo not given)?
P. yoelii liver: inactive

How did COC(=O)C1=C(C)NC2=C(C(=O)CC(c3ccc(OC)c(OC)c3)C2)C1c1ccccc1F (stereo not given) do in these assays?
P. yoelii liver: inactive

Results for O=C(Cc1ccccc1)NCc1ccc(Nc2c(-c3cccnc3)nc3ccccn23)cc1 ?
P. yoelii liver: inactive

How did CC(C)CCNCC(O)Cn1c2ccccc2c2ccccc21 (stereo not given) do in these assays?
P. yoelii liver: inactive

Results for O=C(Nc1cccc(C2=NCCN2)c1)c1ccc(C(=O)Nc2cccc(C3=NCCN3)c2)cc1 ?
P. yoelii liver: inactive

What do the screens show for `Cc1c(-c2ccccc2)c2ccccc2n1CCc1ccc(C)[n+](C)c1`?
P. yoelii liver: inactive

Structural class, the compounds so far containing a nitro group on carbon.
How did COc1c([N+](=O)[O-])cc2c(c1Br)OC1(C=C2)N(C)c2ccccc2C1(C)C (stereo not given) do in these assays?
P. yoelii liver: inactive

Results for CCN1CCC(NC2CCCc3c2[nH]c2ccc([N+](=O)[O-])cc32)CC1 (stereo not given) ?
P. yoelii liver: inactive

What do the screens show for `CN(CCCNc1ccnc2cc(Cl)ccc12)S(=O)(=O)c1ccc([N+](=O)[O-])cc1`?
P. yoelii liver: inactive

What do the screens show for `O=C1C(=O)N(CCCn2ccnc2)C(c2ccccc2[N+](=O)[O-])C1=C(O)c1ccccc1` (stereo not given)?
P. yoelii liver: inactive

What do the screens show for `Cc1ccc(N2C(=O)C3C(C2=O)C2(c4ccccc4)C(=O)C3(c3ccccc3)C(c3ccccc3)=C2c2ccccc2)cc1[N+](=O)[O-]` (stereo not given)?
P. yoelii liver: inactive

How did CCN(CC)CCCC(C)Nc1cc(C=Cc2ccc([N+](=O)[O-])cc2)nc2cc(OC)ccc12 (stereo not given) do in these assays?
P. yoelii liver: inactive

How did Cc1nn(-c2cc(N3CCOCC3)ccc2[N+](=O)[O-])c(=O)c2ccccc12 do in these assays?
P. yoelii liver: inactive

Results for O=c1c([N+](=O)[O-])cccn1Cc1ccc(F)cc1Cl ?
P. yoelii liver: inactive

(list continues)
What do the screens show for `Clc1ccc2c(N3CCC(n4cccc4)CC3)ccnc2c1`?
P. yoelii liver: inactive

What do the screens show for `O=C(Cn1cc([N+](=O)[O-])nc1[N+](=O)[O-])N1CCN(c2ccc(F)cc2)CC1`?
P. yoelii liver: inactive

How did COc1cc(N=C(C)C2=C(O)c3ccccc3C2=O)c(OC)cc1Cl do in these assays?
P. yoelii liver: inactive

How did CCN(CC)CCCC(C)Nc1nc(C=Cc2ccccc2OC)nc2cc(Cl)ccc12 (stereo not given) do in these assays?
P. yoelii liver: inactive

Results for CCOC(=O)C1(CC2CCCCO2)CCN(C(=O)Nc2cccc(SC)c2)CC1 (stereo not given) ?
P. yoelii liver: inactive

What do the screens show for `CC(=O)N1CCOC1C(C)(C)CC=C(C)CCC=C(C)C` (stereo not given)?
P. yoelii liver: inactive

What do the screens show for `COc1ccc(CN2CCC(C(=O)Nc3ccc(Oc4cccnc4)cc3)CC2)cc1`?
P. yoelii liver: inactive

Bioassay records from PubChem.
